Beta2AR agonist = activates human beta-2 adrenergic receptor causing internalization; P07550; Am2.2-beta2AR cells, FAP receptor internalization, flow cytometry; reference of the scale not given here; response, % (no concentration beside the values); 340,000 tested, 0.43% active;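 active = response above a set limit, near 3 SD of response in nonfluorescent compounds, cut at about 42% in these data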;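 also: stock transfer was 100 nL into about 11 µL; a reference agonist was the positive control; negative values mostly stem from fluorescent compounds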
Target sequence (P07550 whole entry, looked up): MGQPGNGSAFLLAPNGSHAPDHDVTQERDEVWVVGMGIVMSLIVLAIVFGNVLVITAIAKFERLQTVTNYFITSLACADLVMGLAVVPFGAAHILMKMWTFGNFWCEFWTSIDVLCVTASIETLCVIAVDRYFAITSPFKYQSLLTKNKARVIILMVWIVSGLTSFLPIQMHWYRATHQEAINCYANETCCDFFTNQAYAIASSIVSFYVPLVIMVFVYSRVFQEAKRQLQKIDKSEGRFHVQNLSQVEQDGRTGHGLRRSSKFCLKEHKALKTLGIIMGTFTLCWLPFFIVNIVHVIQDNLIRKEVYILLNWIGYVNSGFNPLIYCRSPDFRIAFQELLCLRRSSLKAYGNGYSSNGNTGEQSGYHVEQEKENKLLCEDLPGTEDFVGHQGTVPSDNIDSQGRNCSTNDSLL
LANA-H2A inh = blocks KSHV LANA binding to histone H2A/H2B; Q9QR71; cell-free LANA-H2A/H2B peptide, fluorescence polarization; inhibition, % (concentration not given with the values); 320,000 tested, 0.6% active; AID 2629; in the data active = inhibition mostly above about 10%, no sharp cut-off; inactive = mostly below about 6.7%;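 also: stock transfer was 7.5 nL into about 10 µL; 0% = median of vehicle wells and 100% = median of positive control wells; one replicate is shown; the record names a cut of 25% in any replicate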
Vif TR-FRET = HIV-1 Vif–A3G interaction blockers – biochemical, TR-FRET, GST-Vif 1-94, biotin-A3G peptide, dose response retest, primary screen (AID 1117319); inhibition, %, or IC50 in µM where a hit was titrated; TR-FRET GST-Vif / biotin-A3G peptide binding; higher % means a stronger effect; test concentration not given here; strong numbers were not always called active; 260,000 tested, 0.57% active;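 active = above the screen mean plus three standard deviations and confirmed in dose response; inconclusive = results disagree or hit not tested in dose response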;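 also: Vif residues 1-94 fused to GST binding biotinylated APOBEC3G peptide 110-148; 0% = full assay without inhibitor and 100% = GST in place of GST-Vif; retest series ran down from 100 µM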
UCH37 DUB inh = inhibitors of human deubiquitinating enzyme UCH37; inhibition, % (no concentration beside the values); 330,000 tested, 0.33% active; AID 588478; purified proteasome/UCH37, Ub-AMC cleavage fluorescence;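 active = mean of two replicates above 20%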;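 also: 0% = compound-free wells with enzyme and 100% = wells lacking proteasome; stock transfer was 100 nL into about 20 µL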
Target sequence (Q9Y5K5 whole entry, looked up): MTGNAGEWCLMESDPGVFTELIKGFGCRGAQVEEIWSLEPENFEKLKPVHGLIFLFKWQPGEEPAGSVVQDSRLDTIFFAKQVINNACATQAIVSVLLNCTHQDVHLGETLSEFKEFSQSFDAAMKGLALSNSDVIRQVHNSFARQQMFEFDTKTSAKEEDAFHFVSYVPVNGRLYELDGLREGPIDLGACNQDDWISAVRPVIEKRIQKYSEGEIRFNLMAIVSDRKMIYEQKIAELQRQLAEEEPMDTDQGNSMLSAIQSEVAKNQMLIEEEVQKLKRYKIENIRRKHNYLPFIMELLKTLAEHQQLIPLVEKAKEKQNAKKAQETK
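assay system = human UCH37 enzyme supplied as purified proteasome complex | amount = proteasome at 0.15 nM in the dispensed enzyme solution | schedule = 30 min compound-proteasome preincubation then 25 min substrate reaction, room temperature | measured by = fluorescence, ex 355 nm, em 460 nm | benchmarks = no-proteasome wells (full inhibition) and compound-free wells (no inhibition)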
E coli growth = inhibitors of Escherichia coli growth | OD600, 23 h; hits give low values | OD600 absorbance (test concentration not listed) | 330,000 tested, 0.21% active | AID 1053175;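 active = OD600 absorbance below the run mean of sample wells minus 3.6 SD, in any replicate, cut at about 0.56 in these data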;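 also: stock transfer was 300 nL into about 60 µL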
HNF4A DNA FP = change in binding of human HNF4 alpha to DNA. 360,000 tested, 0.3% active. HNF4a-FITC DNA binding, fluorescence polarization, 1 h. P41235. AID 1224865. activity change, % at 10 µM; in the data active = activity change above about 30%, passing the limit was not always enough;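 also: controls were the assay level and a saturating level of protein; the project sought stronger binding though the title names inhibitors; some compounds called inactive have numbers as strong as hits; positive values seem to mean higher polarization but the record does not say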
Bfl-1 A1 inh = inhibitors of the anti-apoptotic protein A1, read as caspase activation; MEF A1-2A-BIM cells, Caspase-Glo 3/7 luminescence, 3 h; percent of clofoctol response, vehicle zero; caspase activation, % (concentration not given with the values); 330,000 tested, 0.066% active; AID 2462;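 active = over half of replicate activation scores above 10%, or exactly half above 10 with the replicate mean above 10; inconclusive = replicate mean below 10 yet half the replicates above 10; inactive = over half of replicates below 10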;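 also: wells of about 30 µL received 50 nL stock; many hits fall short of the cut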
Starred values were filed as active, the others as inactive; ? = inconclusive; . = not tested or not shown; & = joins results of further samples.

SMILES | Beta2AR agonist | LANA-H2A inh | Vif TR-FRET | UCH37 DUB inh | E coli growth | HNF4A DNA FP | Bfl-1 A1 inh
CCOC(=O)c1c(C)[nH]c(C(=O)COC(=O)CCC(=O)c2ccc3c(c2)OCCO3)c1C | 12 | -0.6 | -4% | 4.2 | 0.73 | 1.1 | -0.3
COC(=O)Cn1c(=NC(=O)c2ccc(S(=O)(=O)N3CCc4ccccc4C3)cc2)sc2cc(OC)ccc21 | -6 | 2.9 | -77% | -348 | 0.73 | -2.1 | 0.4
COc1cccc(C2CCCN2Cc2nc(-c3sccc3C)oc2C)c1 (stereo not given) | -4 | -1.6 | -8% | -8.2 | 0.62 | 6.6 | 0.3
O=C(Cn1cnc2scc(-c3ccccc3)c2c1=O)NCc1ccco1 | -1 | -2.7 | . | 1.1 | 0.64 | -4.8 | -0.6
CC1=C(C(=O)OC2CCCCCCC2)C(c2ccc(O)cc2)NC(=O)N1 (stereo not given) | -7 | -5.3 | . | 4.4 | 0.7 | 0.6 | 0.2
CCC(CC)c1nnc(NC(=O)C2CCCO2)s1 (stereo not given) | 0 | 1.2 | . | . | . | 3.2 | -0.1
COc1cccc(CN(C)C(=O)c2ccc3nccnc3c2)c1 | 10 | 0.5 | 6% | -3.2 | 0.76 | 0.1 | ?
O=C(Nc1cccc(N2C(=O)C3CCCCC3C2=O)c1)c1ccccc1 (stereo not given) | -3 | 1.0 | . | 4.3 | 0.73 | -0.9 | -1.5
CCc1nc2nc(C)c(NS(=O)(=O)c3ccc(F)cc3)c(=O)n2[nH]1 | 6 | 8.1 | . | -0.6 | 0.66 | -4.0 | -0.1
Cc1cc(C)n(CC(=O)N/N=C/c2cc(Br)cc([N+](=O)[O-])c2O)n1 | 1 | -2.3 | . | . | . | 2.0 | 0.3
COc1ccc(CNC(=O)c2ccc3c(=O)n(-c4ccccc4)c(=O)[nH]c3c2)cc1 | 0 | -2.0 | . | -30 | 0.7 | -6.2 | -0.1
COc1ccc(NC2c3ccccc3C(=O)N2Cc2ccccc2Cl)cc1OC (stereo not given) | -7 | 1.5 | . | 1.7 | 0.71 | 6.0 | 0.5
CCOC(=O)N1CCN(C(=O)c2cc3c(-c4cccc(OC)c4)nn(C)c3s2)CC1 | 3 | -1.8 | . | 3.0 | 0.7 | -5.2 | 0.7
O=C(NNc1c(Cl)cc(Cl)cc1Cl)c1cccc([N+](=O)[O-])c1 | -2 | 3.0 | ? | 1.3 | 0.58 | -0.6 | 0.4
Cc1cc(C)nc(/N=C2\NC(=O)CC(C(=O)O)N2c2ccc(Oc3ccccc3)cc2)n1 (stereo not given) | -23 | 3.5 | 20% | 1.9 | 0.7 | 0.5 | 0.8
CCC(CC)c1nnc(NC(=O)CN2C(=O)NC3(CCCC3)C2=O)s1 | 1 | 7.2 | . | -1.9 | 0.69 | -0.9 | -1.0
O=S(=O)(N1CCCCC1)N1CCN(c2ccccc2F)CC1 | -2 | -2.8 | 69% | 2.9 | 0.68 | -0.7 | -0.5
CCCOc1cc(CN2CCCCC2)cc(C(C)=O)c1 | -3 | 1.3 | 14% | 3.3 | 0.74 | -0.2 | 0.5
CC(c1ccccc1)n1c(SCC(=O)Nc2ccccc2)n[nH]c1=O (stereo not given) | 0 | 2.8 | -11% | 0.0 | 0.62 | -0.5 | 1.3
O=C(N/N=C/c1ccc([N+](=O)[O-])o1)c1cccc(S(=O)(=O)N2CCOCC2)c1 | 2 | 2.5 | 24% | . | . | 0.4 | 0.1
Cc1ccc(S(=O)(=O)NCC(=O)N(CC(=O)NC2CCCCC2)Cc2ccco2)cc1 | 3 | 0.5 | -2%&3% | 8.1 | 0.69 | 0.1 | 0.7
COC(=O)c1sccc1-c1ccc(/C=N/OCc2c(Cl)cccc2Cl)o1 | 0 | -1.4 | -8% | . | . | 4.7 | 0.3
Cc1ccc(S(=O)(=O)Nc2nonc2C)cc1 | -1 | -3.0 | 3% | 3.1 | 0.64 | -2.8 | -0.2
Cc1nn(Cc2ccc(Cl)c(Cl)c2)c(C)c1NC(=O)c1noc2c1CCCCC2 | -17 | -0.8 | 2% | 0.4 | 0.72 | -1.7 | 0.3
O=C(c1ccc(N2C(=O)C3C4c5ccccc5C(c5ccccc54)C3C2=O)cc1)N1CCOCC1 (stereo not given) | 6 | -1.3 | 2% | -0.4 | 0.65 | -1.8 | -0.2
CCOc1cc(C2C(C(=O)OC)=C(C)N=C3SCCC(=O)N32)ccc1OC(C)=O (stereo not given) | -1 | 4.1 | 8% | 1.4 | 0.72 | -2.6 | -0.4
COc1ccc2oc(=O)c(C(=O)NCc3ccco3)cc2c1 | 5 | -1.2 | -13% | -58 | 0.67 | 3.8 | 0.1
C=CCC(NC(C)c1ccccc1)c1ccco1 (stereo not given) | 7 | -0.7 | 1% | 1.6 | 0.67 | 0.0 | 0.1
CC(C)(C)c1ccc(NC(=O)C2CCCN(c3cnccn3)C2)cc1 (stereo not given) | 2 | . | . | -30 | 0.7 | -0.8 | .
Cn1c(CNC(=O)OC(C)(C)C)nnc1SCC(=O)N1CCOCC1 | -3 | -4.0 | ? | 2.9 | 0.7 | 2.5 | 0.3
CC(C)(C)c1ccc(S(=O)(=O)NCC(=O)Nc2ccc(-c3nc4ccccc4s3)cc2)cc1 | -5 | 6.7 | -5% | -29 | 0.83 | 7.1 | -0.9
OC(CN1CCN(c2ncc(C(F)(F)F)cc2Cl)CC1)c1ccccc1 (stereo not given) | -3 | 0.0 | 2% | -0.7 | 0.63 | -2.2 | -0.4
Cc1nn2c3c(cnc2c1-c1ccc(Cl)cc1)C(=O)CC(c1ccco1)C3 (stereo not given) | -2 | 2.9 | 0% | -7.5 | 0.69 | 2.4 | 0.2
CC1=C(C(=O)O)N2C(=O)C(NC(=O)c3nn(C)cc3[N+](=O)[O-])C2SC1 (stereo not given) | 3 | 2.5 | . | 1.1 | 0.69 | 6.3 | 1.1
CCN(Cc1ccncc1)C(=O)C1CCN(S(=O)(=O)c2cccs2)CC1 | 2 | 2.7 | 0% | 4.8 | 0.74 | 5.4 | 1.6
Cc1ccc(C)c(C(=O)OCC(=O)Nc2cccc(S(=O)(=O)NC3=NCCCCC3)c2)c1 | 4 | -2.8 | -3% | 3.8 | 0.71 | -0.5 | 0.8
COc1ccccc1CNC(=O)C1CCN(S(=O)(=O)c2ccc(-n3cnnn3)cc2)CC1 | 6 | 3.2 | . | 0.1 | 0.69 | 0.1 | 0.3
O=C(CNC(=O)C1CCCCC1)NCCCO | 5 | -1.9 | 1% | 3.1 | 0.67 | 4.1 | 1.4
COc1ccc2oc(=O)c(C(=O)NCc3ccccc3)cc2c1 | -8 | -2.5 | . | -65 | 0.7 | 3.4 | -1.7
COCCNC(=O)Cn1cc(/C=N/NC(=O)c2ccc(Oc3ccc(O)cc3)cc2)c2ccccc21 | 18 | 4.5 | 1% | . | . | 1.4 | -0.3
CC(C)c1ccc(CNC(=O)C(=O)NCCCn2ccnc2)cc1 | -6 | -3.6 | -1% | 14 | 0.72 | -0.3 | -0.3
Cc1ccc(-c2cc(C(=O)Nc3ccc(S(=O)(=O)Nc4cc(C)on4)cc3)c3ccccc3n2)c(C)c1 | 2 | 1.9 | 7% | 1.9 | 0.71 | -0.1 | 0.3
CC(C)(C)NC(=O)/C(=C\c1ccco1)NC(=O)c1ccco1 | -5 | 0.3 | -10% | 4.9 | 0.7 | -7.0 | -0.4
O=C(NC(=S)NCC1COc2ccccc2O1)c1ccccc1 (stereo not given) | -4 | -3.4 | 0% | 1.1 | 0.7 | -2.5 | 0.4
O=C(CN1CCN(Cc2ccc(F)cc2)CC1)NCCc1ccccc1 | -3 | -0.4 | -12% | 4.1 | 0.65 | 2.9 | ?

A section taken from the entries so far:
SMILES | Beta2AR agonist | LANA-H2A inh | Vif TR-FRET | UCH37 DUB inh | E coli growth | HNF4A DNA FP | Bfl-1 A1 inh
CC(C)(C)c1ccc(S(=O)(=O)NCC(=O)Nc2ccc(-c3nc4ccccc4s3)cc2)cc1 | -5 | 6.7 | -5% | -29 | 0.83 | 7.1 | -0.9
OC(CN1CCN(c2ncc(C(F)(F)F)cc2Cl)CC1)c1ccccc1 (stereo not given) | -3 | 0.0 | 2% | -0.7 | 0.63 | -2.2 | -0.4

(cont.)
SMILES | Beta2AR agonist | LANA-H2A inh | Vif TR-FRET | UCH37 DUB inh | E coli growth | HNF4A DNA FP | Bfl-1 A1 inh
O=C(Nc1ccc(-c2csc(Nc3cccc(C(F)(F)F)c3)n2)cc1)c1cccc(C(F)(F)F)c1 | 5 | 0.0 | . | -1.2 | 0.66 | -8.2 | 1.0
O=C(Nc1ccccc1N1CCOCC1)c1ccncc1 | -3 | . | 17% | -0.6 | 0.7 | 2.6 | .
CCOc1ccc(S(=O)(=O)N2CCN(C(=O)c3cc4ccccc4o3)CC2)cc1 | -21 | 13 | . | 2.4 | 0.73 | -2.1 | -0.6
COc1ccc(-n2ccn3c(CCC(=O)N4CCN(c5cccc(C)c5C)CC4)nnc3c2=O)cc1 | 1 | -0.6 | -4% | 3.3 | 0.66 | 1.9 | -1.3
NC(=O)C1Cc2ccccc2CN1C(=O)c1nn(Cc2ccccc2)c(=O)c2ccccc12 (stereo not given) | -7 | 3.5 | 82% | 2.4 | 0.67 | 4.9 | -0.2
Cc1cccc(N(C)C(=O)CCS(=O)(=O)c2cc3c(cc2Cl)NC(=O)CO3)c1 | -3 | -1.1 | . | 1.1 | 0.7 | 0.0 | -0.3
O=C(Nc1ncc(Cc2cccc(Cl)c2Cl)s1)c1ccc([N+](=O)[O-])cc1 | 1 | -0.2 | -2% | 2.2 | 0.73 | -0.4 | 0.4
C/C(=N\NC(=O)c1cccs1)c1ccc2ccccc2c1 | 4 | 1.4 | -3% | . | . | -4.4 | -0.9
O=C1CCCCCCCN1Cc1ccccc1 | -7 | -1.5 | . | 0.0 | 0.66 | 2.9 | -0.3
CCOC(=O)N1CCN(S(=O)(=O)c2ccc(C(=O)NNc3nc4c(C)cccc4s3)cc2)CC1 | 19 | -10 | 15% | -0.3 | 0.71 | 1.4 | .
CN(Cc1cccc(Cl)c1Cl)c1ccc(S(=O)(=O)N2CCCCC2)cc1[N+](=O)[O-] | 6 | -1.3 | . | -0.5 | 0.74 | -1.6 | 0.7
COc1ccccc1N1C(=O)c2ccc(C(=O)Nc3nccs3)cc2C1=O | -2 | -6.0 | 4% | 0.7 | 0.66 | -0.1 | -0.5
CCOC(=O)CCC(=O)Nc1ccc(S(=O)(=O)N2CCc3ccccc32)cc1 | 4 | -2.1 | . | 2.4 | 0.65 | 2.0 | 0.2
COCC(=O)Nc1ccc(N(C)C)cc1 | 0 | 0.3 | 18% | 5.1 | 0.73 | 8.3 | -1.0
CC(C)(C)N(NC(=O)Nc1ccccc1)C(=O)c1ccccc1 | 2 | -1.4 | 3% | 0.1 | 0.69 | 1.7 | 1.0
COCC(=O)N(C)[C@H]1C[C@H]2c3cc(-c4ccccc4)ccc3CCN2C(=O)[C@H]1[C@H](C)O | -11 | . | 2% | . | . | 3.5 | .
Cc1cc2nc(C3CCN(C(=S)NCCCOC(C)C)CC3)[nH]c2cc1C | -1 | -0.2 | ? | 4.6 | 0.66 | -0.8 | -0.8
COc1ccc(C(=O)N/C(=C\c2cn(S(=O)(=O)N(C)C)c3ccccc23)C(=O)NCCCN2CCOCC2)cc1 | 4 | 6.9 | . | 2.3 | 0.71 | 0.5 | 0.9
CN(C)S(=O)(=O)c1ccc(C(=O)NCC(C)(C)N2CCOCC2)cc1 | -9 | -7.4 | -2% | 1.6 | 0.65 | 2.3 | 1.3
CCC(C)c1ccc(NC(=S)NCc2cccnc2)cc1 (stereo not given) | -14 | 1.9 | . | 7.3 | 0.6 | -0.8 | -0.9
